Screening data from PubChem BioAssay.
VACV mCherry inh – vaccinia inhibition (mCherry reporter); AID 720579; Potency, µM (highest dose often 36.5 µM), inactives show at the highest dose activity change, negative = inhibition, usual class: inhibitors; 310,000 compounds, 0.63% hits; Vaccinia virus mCherry reporter infection, fluorescence; about a quarter of the inactives have no number; active = well fitted inhibition curve with a large enough effect; inconclusive = small, poorly fitted or top-dose-only effect; inactive = no such curve, though single readings can be large or run the other way; tested in A549 cells; also: nearly all actives have a fitted effect of over 35% in size; inactives centre near -10
Vaccinia Venus – inhibitors of vaccinia virus (Venus reporter) | Vaccinia virus Venus reporter expression, fluorescence | 330,000 compounds, 0.46% hits | Potency, µM (titrated, usually from 36.5 µM), without a hit: top-dose activity change, negative = inhibition, actives largely listed as inhibitors; active means well fitted inhibition curve with a large enough effect; inconclusive means small, poorly fitted or top-dose-only effect; inactive means no such curve, though single readings can be large or run the other way; tested in A549 cells; also: nearly all actives have a fitted effect of over 30% in size; inactives centre near -10
Active calls of the source: *; i = inactive; ? = inconclusive; nt = no result given; [ ] = another dose, or the depositor's remark. % is scaled to controls: 0 for no effect and ±100 for the full control effect; potency is read from the fitted curve at half-maximal effect.

mol,VACV mCherry inh,Vaccinia Venus
N#Cc1c(/N=C/c2ccco2)sc2c1CCC2,nt,-5%
CN1CCN(Cc2nc(Cc3ccccc3)no2)CC1c1ccccc1 (stereo not given),-14%,-14%
O=C(Nc1ccccc1F)c1csc([C@@H]2C[C@H](O)[C@@H](CO)O2)n1,6%,0%
CCN(CC(=O)Nc1c(F)cccc1F)C(=O)CCOc1ccccc1,i,-10%
Cn1cc(C(=O)C(=O)N2CCN(c3ccccc3)CC2)c2ccccc21,i,3%
COCc1c(C(=O)N2CCN(c3ccccc3C)CC2)oc2ccccc12,-24%,-12%
O=C(Cn1nc(-c2ccc(F)cc2)ccc1=O)Nc1ccc(C(=O)NC2CC2)cc1,nt,-7%
CCCCNC(=O)c1ccc2c(OCC)n(CCCC)nc2c1,-9%,-17%

Next results follow.
mol,VACV mCherry inh,Vaccinia Venus
CC12CCC(=O)N1C(C(=O)OCC(=O)Nc1ccc(S(N)(=O)=O)cc1)CS2 (stereo not given),-14%,-4%
O=S(=O)(Nc1cccc(-c2cn3cccnc3n2)c1)c1ccccc1,-7%,-13%
Cc1c2cnn(CC(=O)Nc3ccc(F)cc3F)c(=O)c2c(C)n1Cc1cccc(Cl)c1,-3%,-9%
CCc1ccc2nc(N3CCC(C(=O)N4CCC5(CC4)OCCO5)CC3)sc2c1,i,-22%
CCc1ccc(C(=O)COC(=O)[C@@H](NC(N)=O)[C@@H](C)CC)cc1,i,-5%
O=C(Nc1ccc(F)cc1)Nc1sccc1-c1nc2ccccc2s1,i[7.34 µM],-9%[7.34 µM]
S=C(Nc1cccc(Cl)c1)N(CCCN1CCCC1)Cc1cccn1Cc1ccc(Cl)cc1,?,?
O=C(NCCC1=CCCCC1)c1cc(-c2ccccn2)nc2ccccc12,-7%,-14%

Remaining list, next part:
mol,VACV mCherry inh,Vaccinia Venus
COc1ccc(Cl)cc1NC(=O)CN(C)CC(=O)Nc1cccc(S(=O)(=O)N2CCCC2)c1,-4%,-23%
c1nc(Nc2ccc(N3CCOCC3)cc2)c2ccsc2n1,?,-17%
CCC/C=C/c1ccc(CN2C(C)C(=O)N(Cc3cn(Cc4ccco4)nn3)CCS2(=O)=O)cc1 (stereo not given),-20%,?
O=C(c1ccccc1)N1CCCC(c2nc3c(nnn3Cc3ccccc3)c(=O)[nH]2)C1 (stereo not given),-10%,-14%
Cc1cc(C)n2nc(CC(=O)NCc3ccc(F)cc3)nc2n1,-7%,-2%
O=C(COc1ccccc1F)NNC(=O)c1ccc(F)c(S(=O)(=O)N2CCOCC2)c1,-14%,-2%
N#Cc1c(NC(=O)COC(=O)c2nccnc2N)sc2c1CCCC2,-18%,-11%
Cc1ccc(NC(=O)C2CCCN2C(=O)NCc2ccccc2)cc1 (stereo not given),-9%,-10%

(continued)
mol,VACV mCherry inh,Vaccinia Venus
COc1ccc(/C=N/Nc2ncccc2[N+](=O)[O-])c(OC)c1,-22%,-12%
Cc1noc(C)c1COc1ccc(C(=O)N2CCN(c3ccccn3)CC2)cc1,-18%,-11%
O=C(NC1CCCCCC1)c1cc2c(Cl)nc3ccccc3c2s1,-9%,-10%
CCCCN1C(=N)N([C@@H](C)CN2CCC[C@H]2CN2C(N)=NC[C@H]2CC(C)C)C[C@H]1Cc1ccccc1,-6%,-9%
Cn1c(SCc2cccc(Br)c2)nnc1-c1ccccn1,i[7.34 µM],-7%[7.34 µM]
CC(=O)NCCc1nc2ccccc2n1CCOc1ccccc1C,-5%,-4%
CSc1nc(NC(C)=O)nc(C)c1Br,nt,-8%
O=C(Nc1nc2c(s1)CCCC2)c1ccc(Br)o1,-19%,-17%

The listing continues.
mol,VACV mCherry inh,Vaccinia Venus
O=C1CCCc2cc3c(cc21)CC1(C3)Cc2cc3c(cc2C1)C(=O)CCC3,-10%,?
CC(C)[C@H](NC(=O)c1c(F)cccc1F)C(=O)OCC(=O)NNC(=O)c1ccccc1,i,-3%
CCOc1ccccc1C(=O)N(Cc1ccc(N(C)C)cc1)CC1CCCO1 (stereo not given),-15%,-17%
COc1cccc(CC(=O)NCC2COc3ccccc3O2)c1OC (stereo not given),-14%,-13%
O=c1cc(CSc2nnnn2-c2ccccc2)[nH]c2[nH]n(-c3ccccc3)c(=O)c12,nt,-15%
C[C@H](NC(=O)C1(c2ccccc2)CCN(C(=O)OC(C)(C)C)CC1)C(=O)N[C@@H](C(=O)O)c1ccccc1,4%,-1%
CN(CC1CCCO1)S(=O)(=O)c1ccc(C(=O)Nc2ccc(S(N)(=O)=O)cc2)cc1 (stereo not given),-11%,-7%
CCC1(c2ccccc2)NC(=O)N(CC(=O)Nc2cc(C(F)(F)F)ccc2N2CCCC2)C1=O (stereo not given),-17%,-9%

Nothing new here: an excerpt of the list.
mol,VACV mCherry inh,Vaccinia Venus
O=C1CCCc2cc3c(cc21)CC1(C3)Cc2cc3c(cc2C1)C(=O)CCC3,-10%,?
CC(C)[C@H](NC(=O)c1c(F)cccc1F)C(=O)OCC(=O)NNC(=O)c1ccccc1,i,-3%
CCOc1ccccc1C(=O)N(Cc1ccc(N(C)C)cc1)CC1CCCO1 (stereo not given),-15%,-17%

Next results follow.
mol,VACV mCherry inh,Vaccinia Venus
O=C(Nc1nc2cc3c(cc2s1)OCCO3)c1cccs1,-11%,-5%
COc1ccc(OC(=O)c2ccc(OC)c(S(=O)(=O)N3CCOCC3)c2)cc1,-5%,-1%
O=C(COC(=O)/C=C/c1cccs1)NC1CC1,i,-8%
Cc1csc(NC(=O)COc2ccc3c(C)cc(=O)oc3c2)n1,-12%,2%
COCCOC(=O)C1=C(C)NC(=S)NC1/C=C/c1ccccc1 (stereo not given),i,3%
COc1ccc(C2=NN(c3ccc(C=O)cc3)C(c3ccccc3)C2)cc1 (stereo not given),?,-7%
CCCCCSc1nc2c(cnn2-c2ccccc2)c(=O)[nH]1,-6%,-2%
CCn1c(Sc2ccc(N)cc2Cl)nc2ccccc21,-26%,-17%

Additional structures:
mol,VACV mCherry inh,Vaccinia Venus
COc1ccc(-c2cc(-c3ccccc3)c(C#N)c(S(C)(=O)=O)n2)cc1,i,-11%
CCOC(=O)c1csc(CCNC(=O)c2oc3c(Cl)cc(C)cc3c2C)n1,-10%,-9%
CCCCNC(=O)C(NS(=O)(=O)c1cccc2nsnc12)c1ccccc1 (stereo not given),i,-13%
O=C(NC1CCCC1)C(c1ccsc1)N(C(=O)Cc1cccs1)c1ccccc1 (stereo not given),i,-4%
O=C(c1cnc2ccccn2c1=O)N1CCc2ccccc21,-7%,-3%
CCN(c1cccc(C)c1)S(=O)(=O)c1ccc2c(c1)CCN2C(C)=O,-26%,?
CCCN(CCC)Cc1cc(=O)oc2cc(C)cc(C)c12,32%[activator],2%
O=C(O)CSc1nc2ccccc2n1C1CCCCC1,i,-11%

Continued:
mol,VACV mCherry inh,Vaccinia Venus
COc1cc(C)c(CNC2CCCCC2)cc1C,-13%,-16%
Cc1cc(C(=O)N/N=C/c2ccc(O)c([N+](=O)[O-])c2)c(C)n1-c1ccc(F)cc1,-14%,2%
N#CC(C#N)=Cc1ccc(N2CCOCC2)cc1,-14%,0%
Cc1ccc(S(=O)(=O)N2CCCCC2C(=O)N2CCN(C)CC2)cc1 (stereo not given),nt,-10%
CC(Sc1cccc2cccc(C(=O)O)c12)C(=O)O (stereo not given),nt,-12%
CC(C)(O)c1[nH]c2cc(C(F)(F)F)ccc2c1C(C)(C)O,-20%,-24%
Cc1cc(C(=O)CCC(=O)N2CCN(c3ccccc3)CC2)c(C)s1,?,7%
CC(C)c1nc(NCCN2CCOCC2)c(C#N)c2c1COC(C)(C)C2,-11%,-6%

(further entries)
mol,VACV mCherry inh,Vaccinia Venus
Cc1cccnc1NC(=S)NC(=O)/C=C/c1ccco1,nt,-11%
C=CC(=O)N1C/C(=C/c2ccc(Cl)cc2)C(=O)/C(=C\c2ccc(Cl)cc2)C1,2.8µM*,5.6µM*
O=C(CCc1c[nH]c2ccccc12)N1CCC(n2c(C3CCCO3)nc3cc(C(F)(F)F)ccc32)CC1 (stereo not given),2%,2%
O=C(Cn1c(=O)oc2cc(S(=O)(=O)NC3CCCC3)ccc21)Nc1ccc(F)c(F)c1,-19%,-5%
C[C@H]1CN([C@@H](C)CO)C(=O)CCCn2nncc2CO[C@@H]1CN(C)Cc1cccc(C(=O)O)c1,51%[activator],-1%
CCC(C)(C)n1nnnc1CN1CCN(c2ccc(OC)cc2)CC1,-3%,-17%
Cc1ccc(C)c(S(=O)(=O)Nc2ccc3c(c2)CCCN3C(=O)c2cccs2)c1,i,?
COc1ccc(CNC(=O)c2cc3sccc3n2Cc2ccc(C)cc2)cc1,-3%,-4%

Next section.
mol,VACV mCherry inh,Vaccinia Venus
COc1ccc(OCCC(=O)OCC(=O)NC2CCCCCCC2)cc1,i,-4%
Cc1c(Cl)cccc1NC(=O)CSc1nncn1-c1cccnc1,20%,2%
CCC(C)C(=O)C(=O)N1CCC(n2nccc2NC(=O)CCOc2ccccc2)CC1 (stereo not given),?,?
CCCCNC(=O)CNC(=S)N(Cc1ccccc1)Cc1cccs1,i,-5%
O=C1C2CCN(CC2)C1(CO)CO,-13%,-4%
N#Cc1c2n(c(=S)n(-c3ccc(F)cc3)c1=O)CCCCC2,-22%,-8%
CCCCCCCCc1nnc(N)s1,-3%,-21%
OC1Cc2ccccc2C1Nc1cccc(C(F)(F)F)c1 (stereo not given),-24%,?

Continuation:
mol,VACV mCherry inh,Vaccinia Venus
CC1(Cc2ccccc2Cl)C(=O)Nc2c(Cl)ccc(Cl)c21 (stereo not given),-10%,-1%
CSCCC(NS(=O)(=O)c1ccc2c(c1)oc(=O)n2C)C(=O)NC1CCCCC1 (stereo not given),-4%,-2%
CCc1ccc(OCCNC(=O)OCc2ccccc2)cc1,-6%,-7%
O=C(Nc1ccc(-c2cn3cccnc3n2)cc1)c1cc(Br)ccc1Cl,-11%,-13%
Nc1ccccc1Oc1c(F)c(F)c(Oc2ccccc2N)c(F)c1F,-26%,-29%
CCOC(=O)Cn1c(=O)cc(C)c2c(C)nn(-c3cccc(F)c3)c21,-4%,-20%
Cc1cccc(NC(=O)Cn2cc(S(=O)(=O)N3CCCC3)c(S(=O)(=O)N3CCCC3)c2)c1C,-13%,-14%
OCCC1CN(Cc2cccs2)CCN1Cc1ccccc1 (stereo not given),-2%,-4%

The list continues:
mol,VACV mCherry inh,Vaccinia Venus
O=C(O)COc1ccccc1/C=C1\SC(=S)N(c2cccnc2)C1=O,-10%,0%
COc1ccc(C(=O)CSc2nnc(CNc3ccc(F)cc3)o2)cc1,-25%,-12%
Cc1ccc(C(=O)c2cn(Cc3c(F)cccc3Cl)c3nc(C)ccc3c2=O)cc1,-24%,-19%
COCCn1c(SCC(=O)Nc2cccc(C)c2)nnc1C(C)C,-10%,-25%
O=C(NCc1ccccc1)c1cc(C2CCCN(C(=O)CCc3ccccc3)C2)on1 (stereo not given),1%,-11%
Cc1ccccc1OCC(=O)OCC(=O)NCc1cccs1,i,-7%
O=C(Nc1ccccc1)c1nccn1Cc1ccc(F)cc1,i,-14%
Cc1ccc(OCC(=O)NNC(=O)c2ccco2)c(C)c1,i,-6%

(continued)
mol,VACV mCherry inh,Vaccinia Venus
CCCn1c(N)c(N(CCOC)C(=O)CSc2cc(C)c3ccccc3n2)c(=O)[nH]c1=O,-15%,12%
COc1cc2nc(CN3C(=O)c4ccccc4C3=O)oc(=O)c2cc1OC,nt,-4%
CN1/C(=C/C(=S)NC(=O)C2CCC2)C(C)(C)c2ccccc21,-7%,-7%
CCCCCn1c(C(C)NC(=O)CCC)nc2ccccc21 (stereo not given),i,-11%
COc1ccc(OC)c2c(/C=C/c3ccc(N(C)C)cc3)ccnc12,-16%,6%
S=C(NCCc1ccccc1)N1CCC2CC1c1c(Cl)cccc12 (stereo not given),i,-13%
Nc1ncnc2c1ncn2C1CCCC(CO)O1 (stereo not given),-21%,-1%
COc1ccccc1CC(NC(C)=O)C(=O)NC1CCN(C(=O)Nc2ccccc2C)CC1 (stereo not given),-7%,-1%

In a second layout: entries from further up.
Second line of a record: VACV mCherry inh | Vaccinia Venus
C=CC(=O)N1C/C(=C/c2ccc(Cl)cc2)C(=O)/C(=C\c2ccc(Cl)cc2)C1
  2.8µM* | 5.6µM*
O=C(CCc1c[nH]c2ccccc12)N1CCC(n2c(C3CCCO3)nc3cc(C(F)(F)F)ccc32)CC1 (stereo not given)
  2% | 2%
Cc1csc(NC(=O)COc2ccc3c(C)cc(=O)oc3c2)n1
  -12% | 2%
Cc1cc(C)n2nc(CC(=O)NCc3ccc(F)cc3)nc2n1
  -7% | -2%
COc1ccc(C2=NN(c3ccc(C=O)cc3)C(c3ccccc3)C2)cc1 (stereo not given)
  ? | -7%

(listing goes on)
mol,VACV mCherry inh,Vaccinia Venus
CC[C@@]1(C(=O)OC)N[C@H](CN(C)C(C)=O)[C@@H]2C(=O)N(Cc3ccccc3)C(=O)[C@@H]21,i,-2%
CCOC(=O)c1cc(NC(=O)NC2CCCCC2)c(C)nc1C,-9%,-4%
COc1ccc(-n2cc(-c3ccccc3)c3c(NCc4cccc(Cl)c4)ncnc32)cc1,-20%,-6%
CCCCCNC(=O)c1cc2c(=O)n3ccccc3nc2n1C,-8%,-1%
COc1ccc(CC(=O)Nc2nc(OCCN3CCCC3=O)cnc2-c2cccc(C(F)(F)F)c2)cc1,13%,-12%
CCN(CC)C(=O)CSc1nc(-c2ccccc2)cc(-c2ccc(OC)cc2)c1C#N,-8%,-5%
CCOC(=O)c1c(NC(=O)CN2C(=O)C(=O)N(CC(C)C)C2=O)sc(C)c1CC,i,-16%
CC1CCCCN1CCn1cnc2c([nH]c3ccccc32)c1=O (stereo not given),i,-6%
